# Screening results as filed in PubChem BioAssay.
# A1 inh: inhibitors of the anti-apoptotic protein A1, read as caspase activation; MEF A1-2A-BIM cells, Caspase-Glo 3/7 luminescence, 3 h; percent of clofoctol response, vehicle zero; caspase activation, % (no concentration beside the values); 330,000 compounds, 0.066% hits; AID 2462;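 active = over half of replicate activation scores above 10%, or exactly half above 10 with the replicate mean above 10; inconclusive = replicate mean below 10 yet half the replicates above 10; inactive = over half of replicates below 10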;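 note: wells of about 30 µL received 50 nL stock; many hits fall short of the cut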
# RanGTP-Imp inh: disruptors of Ran-importin-beta complex formation – biochemical, FRET, CFP-Ran, YFP-importin-beta, homogeneous, primary screen; cell-free CFP-Ran/YFP-importin-beta FRET ratio; inhibition, % (concentration not given with the values); 300,000 compounds, 1.1% hits; AID 2216;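 active = most replicates above 15%; inconclusive = exactly half above 15%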;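 note: 0% = DMSO wells and 100% = Ran loaded with GDP instead of GTP; wells of about 40 µL received 100 nL stock; the first replicate is given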
# T cruzi inh: T. cruzi replication inhibition; T. cruzi beta-gal in NIH3T3, luminescence, 90 h; inhibition, % (no concentration beside the values); 300,000 compounds, 1.4% hits;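 active = mean inhibition across valid replicates above about 55%, limit read from the data; inconclusive = mean below that limit but half or more replicates reach it; inactive = mean below it, under half of replicates reach it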;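 note: signal also drops with host cell toxicity which is not excluded here; 0% = plate median of DMSO wells and 100% = zero luminescence signal; higher percent means less beta-gal luminescence so fewer parasites; stock transfer was 50 nL into about 50 µL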
# Vif TR-FRET: HIV-1 Vif–A3G interaction blockers – biochemical, TR-FRET, GST-Vif 1-94, biotin-A3G peptide, dose response retest, primary screen (AID 1117319). TR-FRET GST-Vif / biotin-A3G peptide binding; higher % means a stronger effect; test concentration not given here; strong numbers were not always called active. inhibition, %, or IC50 in µM where a hit was titrated. 260,000 compounds, 0.57% hits;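 active = above the screen mean plus three standard deviations and confirmed in dose response; inconclusive = results disagree or hit not tested in dose response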;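 note: Vif residues 1-94 fused to GST binding biotinylated APOBEC3G peptide 110-148; 0% = full assay without inhibitor and 100% = GST in place of GST-Vif; retest series ran down from 100 µM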
# MLL AF4-AF9 inh: MLL-AF4/AF9 protein interaction inhibition. AlphaScreen, biotin-AF4 peptide binding to FLAG-AF9. inhibition, % at 10 µM. 350,000 compounds, 0.47% hits;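 active = every replicate reaching a set inhibition limit, whatever the replicate mean, cut at about 25% in these data; inconclusive = mean inhibition reaches that limit but some replicates miss it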;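 note: 0% = plate neutral control median and 100% = total signal loss; the record names both 10 and 1 µM as test concentration; the first replicate is given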
# Target sequence (P42568 whole entry, looked up): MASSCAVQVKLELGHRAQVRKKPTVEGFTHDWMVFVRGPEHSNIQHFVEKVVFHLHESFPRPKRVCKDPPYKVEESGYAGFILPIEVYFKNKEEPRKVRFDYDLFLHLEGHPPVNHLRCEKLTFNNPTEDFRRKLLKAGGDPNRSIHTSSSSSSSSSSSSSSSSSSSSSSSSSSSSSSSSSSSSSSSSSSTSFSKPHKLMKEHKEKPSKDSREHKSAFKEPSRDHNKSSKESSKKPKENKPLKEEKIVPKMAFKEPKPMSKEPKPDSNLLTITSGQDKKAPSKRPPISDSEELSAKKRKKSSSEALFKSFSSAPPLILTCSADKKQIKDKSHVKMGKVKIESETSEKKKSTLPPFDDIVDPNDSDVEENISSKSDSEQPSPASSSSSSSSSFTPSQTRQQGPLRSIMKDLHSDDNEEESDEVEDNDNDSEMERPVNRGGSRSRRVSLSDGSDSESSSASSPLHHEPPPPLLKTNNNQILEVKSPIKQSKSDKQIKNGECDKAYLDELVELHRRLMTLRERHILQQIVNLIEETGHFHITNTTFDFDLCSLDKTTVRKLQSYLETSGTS
# Calb FLC: C. albicans growth modulation with fluconazole | growth inhibition, % (test concentration not listed) | C. albicans CaCi-2 (fluconazole-resistant clinical isolate) + fluconazole, Alamar Blue growth, 48 h | AID 1979 | 300,000 compounds, 0.57% hits;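 active = most replicates above 75%; inconclusive = exactly half above 75%; inactive = most below 75%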;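 note: all wells also contain fluconazole at 8 µg/ml as a sub-toxic cotreatment; 0% = median of DMSO wells and 100% = median of geldanamycin control wells; wells of about 8 µL received 7.5 nL stock; the first replicate is given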
# Beta cell apopt: blocks beta cell apoptosis; INS-1E cytokine-induced death, ATP luminescence, 48 h; percent of positive-control rescue, neutral wells zero; protection from apoptosis, % (no concentration beside the values); 300,000 compounds, 0.8% hits;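 active = all replicates at 75% or more, or half of them and the mean; inconclusive = half reach 75% but not the mean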;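 note: 0% = cytokine-treated negative control wells and 100% = positive control rescue; higher means more ATP so stronger rescue from cytokine killing; wells of about 40 µL received 100 nL stock; the first replicate is given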
# Ecoli rRNA inh: inhibitors of bacterial rRNA selective over humanized ribosomes; E. coli WT GFP vs humanized-ribosome RFP mutants, fluorescence, 24 h; hits give low values; DMSO median 0, no signal -100; GFP signal change (wild-type ribosome), % (concentration not given with the values); 350,000 compounds, 1.6% hits;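 active = significant combined selectivity score with lowered wild-type GFP, culture density cut under 30%, mutant RFP and density less affected; inactive = any of these conditions unmet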; note: one replicate is shown; some compounds called inactive have numbers as strong as hits
# Ecoli rRNA inh OD600: second read-out of Ecoli rRNA inh, no call of its own (marks repeat the call); OD600 change, %; measured here: OD600 growth;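 optical density of the mix in the first replicate; 0 = DMSO median and -100 = no signal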
# Ecoli rRNA inh RFP: recorded beside Ecoli rRNA inh, whose call it bears; RFP signal change, %; measured here: RFP humanized mutant strains;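 first replicate; 0 = DMSO median and -100 = no signal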
# * = called active by the depositor; ? = inconclusive; · = no result given; & = joins results of further samples. A portion of the library. The share of hits here may be higher or lower than overall.
SMILES,A1 inh,RanGTP-Imp inh,T cruzi inh,Vif TR-FRET,MLL AF4-AF9 inh,Calb FLC,Beta cell apopt,Ecoli rRNA inh,Ecoli rRNA inh OD600,Ecoli rRNA inh RFP
N#Cc1c(-c2ccc(Cl)cc2)cc(-c2cccs2)nc1SCC(=O)O,1.5,1.7,3,·,-8.7,32,·,-9,-27,-2.5
Cc1c(OCc2ccccc2)c(=O)ccn1Cc1ccc(Cl)cc1,1.1,-0.2,-11,2%,·,-4,4,·,·,·
CC(NC(=O)c1ccco1)c1nc(-c2ccc(C(C)(C)C)cc2)no1 (stereo not given),0.2,-1.7,13,·,-0.2,-13,11,4,-25,19
COCCCNC(=O)CC(NS(=O)(=O)c1ccc(F)cc1)c1ccc(OC)cc1 (stereo not given),-0.1,3.3,-23,4%,5.2,3,2,21,6,1.5
C=CCN1CN(CCc2ccccc2)CNC1=S,-0.6,4.7,·,0%,0.9,-4,-5,-2,5,0.6
O=C(Nc1ccc(OC(F)(F)F)cc1)C1CCCN(S(=O)(=O)c2cnc[nH]2)C1 (stereo not given),0.7,?,2,·,·,-1,3,·,·,·
C[C@@H](C(=O)OCC(=O)Nc1cc(S(=O)(=O)N2CCOCC2)ccc1Cl)N1C(=O)C2CCCCC2C1=O (stereo not given in full),-1.6,-1.4,-15,22%,·,1,2,·,·,·
O=C(NNC(=S)NC(=O)c1sc2ccccc2c1Cl)c1ccc(Cl)cc1,-0.5,-0.7,-4,·,·,-9,-3,·,·,·
COc1ccccc1C(=O)NCCC(=O)NNC(=O)C1COc2ccccc2O1 (stereo not given),0.7,1.7,-7,-7%,-1.7,-1,-2,8,9,1.3
OCc1ccc(O)c2ncccc12,0.5,-4.3,48,4%,·,107*,107*,·,·,·
CCN(CC)CCNC(=O)c1ccc(Sc2ccc(C)cc2)c(NC(C)=O)c1,0.4,-3.0,-14,?,-0.6,5,-9,4,-1,-1.1
Cc1ccc(S(=O)(=O)Nc2ccccc2/C=N/c2nc3ccccc3n2C(C)C)cc1,0.2,·,·,·,6.9,·,-4,-19,7,10
O=C(NCCc1ccccc1)c1cc([N+](=O)[O-])ccc1N1CCOCC1,0.1,·,·,2%,2.3,·,2,-20,-11,-0.9
COC(C/C=C/[C@@H](O)COCc1ccccc1)OC,1.5,?,17,2%,-1.3,5,-5,2,13,2.9
Clc1ccccc1-c1nn2c(-c3ccncc3)nnc2s1,-1.4,-5.3,16,-4%,·,4,-8,·,·,·
Cc1ccc(Cn2c(=N)c(C(=O)NCc3ccco3)cc3c(=O)n4ccccc4nc32)cc1,0.6,114*,4,?,·,-4,·,·,·,·
COc1ccc(S(=O)(=O)NC(C)C(=O)NCc2cccnc2)cc1OC (stereo not given),0.8,-2.9,10,·,0.7,1,3,4,7,-4.0
Cc1csc(SC(C)c2nc3scc(-c4ccccc4)c3c(=O)[nH]2)n1 (stereo not given),-0.9,-2.0,3,·,-1.9,5,-4,-24*,-19*,-5.0*
COc1cccc(CC(=O)Nc2nc(-c3ccc(OC)c(OC)c3)cs2)c1,-0.8,1.8,16,·,2.3,0,-5,-27,-37,16
Cc1csc(SCC(=O)NC(C)C2CC3CCC2C3)n1 (stereo not given),0.8,-0.9,-5,2%,-3.1,-2,2,-4,-7,0.8
CN(CCc1cnn(C)c1)Cc1cn(C)nc1-c1ccc2c(c1)OCCO2,-0.1,0.4,7,9%,-2.6,-16,-2,·,·,·
CCCn1nc(C(=O)OCC(=O)c2c(N)n(C)c(=O)n(C)c2=O)c2ccccc2c1=O,0.6,-1.6,-5,0%,1.5,19,-5,2,12,-0.7
C[C@H]1CC[C@@]2(O[C@H](CCO)C[C@@H](O)[C@@H]2O)O1,-0.4,?,6,4%,·,0,0,0,6,-1.0
CCN1CCN(C(=O)c2ccc(CN(c3ccc(C)c(C)c3)S(C)(=O)=O)cc2)CC1,0.0,0.5,24,·,0.4,3,-1,14,10,1.7
Cc1sc2ncnc(SCC(=O)c3ccc(O)cc3O)c2c1C,0.8,-1.5,-9,10%,-48,-10,-7,-4,2,3.0
O=C(NCc1cccs1)c1cc2c(s1)CS(=O)(=O)C2,-0.3,4.6,-14,25%,-47,31,-2,6,2,-2.8
CCC(=O)Nc1cccc(NC(=O)c2ccc3c(c2)OCCO3)c1,-2.8,-1.0,4,4%,·,6,·,·,·,·
Cc1ccc(Cc2nnc(SCC(=O)Nc3ccc(C)cc3C)[nH]c2=O)cc1,1.7,-1.6,-9,5%,-1.8,16,·,4,10,-1.6
O=C(Cc1cccs1)N1CCN(S(=O)(=O)c2ccc(F)c(F)c2)CC1,-0.3,·,·,-2%,0.9,·,2,·,·,·
O=C(c1ccc(Cl)c(S(=O)(=O)N2CCc3ccccc3C2)c1)N1CCN(c2ccccc2)CC1,0.0,-2.4,28,·,·,23,-7,·,·,·
CC1(C)OC(=O)C(=NNc2ccccc2[N+](=O)[O-])C(=O)O1,-0.2,3.7,1,-9%,-16,2,-5,3,10,5.8
CCOC(=O)Cc1csc(NS(=O)(=O)c2ccc(Br)cc2)n1,0.2,37*,-11,6%,-2.0,16,-4,-11,-15,-1.5
CCCNC(=S)Nc1ccc(Cl)cc1Cl,-0.5,0.7,-14,-3%,-4.4,2,-4,4,3,-7.2
COc1cc(SC)ccc1C(=O)Nc1c(C)cccc1C,-0.2,-2.7,3,80%,-1.2,72,-7,-27,-25,-3.8
Cc1nn(C)cc1NC(=O)c1cc2nc(-c3ccco3)cc(C(F)(F)F)n2n1,1.5,3.5,-10,-3%,-0.2,-2,2,7,9,2.5
CCc1ccccc1N1CC23C=CC(O2)C(C(=O)OC)C3C1=O (stereo not given),-6.0,-1.2,-4,?,-0.7,0,-4,12,12,1.0
Cc1cccc(N2CCN(S(=O)(=O)c3ccc4c(c3)NC(=O)CS4)CC2)c1C,0.5,-1.6,8,16%,3.6,-17,-2,8,-12,1.4
COc1ccccc1CN1CCNC(=O)C1CC(=O)NCCC1=CCCCC1 (stereo not given),0.2,1.3,-8,12%,-0.2,-12,-7,4,3,-0.9
Cc1ccc(-c2cc(NC(=O)c3ccccc3)on2)cc1,-7.0,-1.0,0,·,2.4,2,-4,0,11,-3.0
Cc1cc(OCC(=O)N(Cc2ccco2)C2CCS(=O)(=O)C2)ccc1Cl (stereo not given),0.4,2.3,8,?,·,9,0,-19*,-6.1*,2.2*
CC(=O)Nc1cccc(CNCc2cccc(NC(C)=O)c2)c1,0.8,-2.3,-21,?,-0.6,-7,6,10,4,3.1
COc1ccc(CNC(=O)C(C)OC(=O)C23CC4CC(CC(O)(C4)C2)C3)cc1 (stereo not given),0.0,3.3,-2,-3%,-0.1,20,1,16,7,-9.6
COc1cccc(/C=C/C(=O)Nc2ccc3c(c2)OCCO3)c1,-4.6,3.8,12,2%,6.3,52,5,-30*,-2.4*,4.3*
Cc1ccc(C(=O)CNc2ccccc2)cc1,-2.5,3.9,-9,·,-0.2,-5,-6,13,12,4.5
CC(=O)Nc1ccc(OCC(=O)c2cc(C)ccc2C)cc1,0.2,4.9,3,12%,·,0,-8,·,·,·
Cc1cccc(/N=C/c2nc(-c3ccccc3Br)oc2O)n1,-1.7,2.1,-43,4%,0.5,18,-3,-7,-9,1.9
Cc1ccc2c(=O)c(C(=O)c3ccc(F)cc3)cn(CC(=O)NCc3ccco3)c2n1,0.2,4.7,-25,·,-11,-4,-7,26,22,12
N#Cc1ccccc1NC(=O)CSC1=Nc2ccccc2C2CC=NN12 (stereo not given),-0.2,-0.6,-7,2%,-4.5,33,-1,12,-1,-1.0
CCc1cc(=O)oc2cc(C)cc(OCC(=O)NCCCN3CCOCC3)c12,0.0,7.3,-5,-1%,0.9,0,3,-7,-3,2.1
Cc1ccc(S(=O)(=O)N2CCC(C(=O)N[C@@H](C)C(=O)NCC3CCCO3)CC2)cc1 (stereo not given in full),-0.6,?,-5,16%,·,10,-6,·,·,·
COc1ccc(-c2nn(-c3ccccc3)cc2CN2CCCO2)c(F)c1,0.1,0.7,14,·,5.9,-24,-3,-14,0,3.1
COc1ccc(-c2noc(CCN3C(=O)c4ccccc4C3=O)n2)cc1OC,0.0,-0.6,-12,-2%,·,7,-4,·,·,·
N=C1C(c2ccccc2)=C(O)CN1c1ccccc1,-0.6,-3.7,-10,-6%,-2.0,-5,2,8,7,-1.2
COCc1nnc(NC(=O)COc2ccc3c(c2)OCO3)s1,-0.3,0.0,-10,·,0.0,10,-5,4,8,-3.5
Cc1ccc(-c2nc(CN(Cc3cnn(C)c3)C(C)C)c(C)o2)o1,1.3,0.5,-6,-2%,3.1,3,-4,13,0,-2.6
CC(=O)Nc1cccc(-c2nnc(SCC(=O)N3CCCCC3)n2C)c1,0.0,?,7,?,·,-1,-7,·,·,·
COc1ccc(C(=O)Nc2ccc(Cl)cc2C(=O)NCCO)cc1,-0.2,?,14,-6%,·,-12,·,·,·,·
CCn1c(SCC(=O)c2ccc(C)cc2)nnc1-c1ccncc1,0.6,0.7,2,-3%,·,-29,-1,·,·,·
Cc1ccc(NC(=S)/N=C(\N)Nc2nc(C)c3cc(C)ccc3n2)c(C)c1,-1.1,0.4,0,3%,-1.3,-4,-5,14,-2,-5.2
O=C(Cc1cccs1)NCc1cccnc1,0.3,-0.9,-2,12%,·,-3,2,·,·,·
# New compounds follow:
SMILES,A1 inh,RanGTP-Imp inh,T cruzi inh,Vif TR-FRET,MLL AF4-AF9 inh,Calb FLC,Beta cell apopt,Ecoli rRNA inh,Ecoli rRNA inh OD600,Ecoli rRNA inh RFP
CCOC(=O)c1cc(-c2cc(OC)c(OC)c(OC)c2)nc2c1c(=O)[nH]c(=O)n2Cc1ccccc1,0.8,9.8,44,-1%,-2.7,-1,13,19,30,2.4
COCCn1c(C)cc(C(=O)CSc2nc3ccccc3s2)c1C,-2.7,-4.2,-9,6%,·,2,7,·,·,·
O=C(OCCNC(=O)c1cc2ccccc2oc1=O)c1cccnc1,-0.3,4.3,-14,-1%,·,4,-2,·,·,·
CCCOc1ccc(N2C(=O)CC(N3CCN(S(=O)(=O)c4ccccc4)CC3)C2=O)cc1 (stereo not given),0.1,-3.5,-8,0%,·,-13,2,·,·,·
Cc1cccnc1NC(=O)CNC(=O)C1CCCCC1,-0.3,·,·,2%,0.7,·,2,11,10,-1.3
Cn1c(=O)c2c(ncn2CC(COCc2ccccc2)OCc2ccccc2)n(C)c1=O (stereo not given),-0.3,1.3,-10,2%,-0.5,1,2,0,-9,-0.1
O=C(Nc1nnc(-c2ccc(Cl)cc2)o1)c1ccccc1Br,0.1,0.2,-64,11%,-4.4,?,5,-57,-75,-16
COc1ccc(NC(=O)COC(=O)[C@@H]2CCCN2C(=O)c2cccs2)c(OC)c1,1.5,5.3,-19,3%,·,1,-7,·,·,·
O=C(NC1CC2CCC(C1)N2Cc1nnnn1Cc1ccco1)NC12CC3CC(CC(C3)C1)C2 (stereo not given),0.8,1.6,6,17%&-1%,·,-6,-4,·,·,·
NNC(=O)COc1ncn(-c2ccccc2)n1,-0.8,-5.0,-11,-7%,·,4,-5,·,·,·
Fc1ccc2[nH]c3c(N4CCSCC4)ncnc3c2c1,-0.1,0.3,-21,24%,·,5,72,·,·,·
